# Screens from PubChem BioAssay.
# MT1-MMP promoter: inhibitors of MT1-MMP promoter transcription, cell-based, luciferase reporter, luminescence (AID 618). MT1-MMP promoter luciferase reporter cells, luminescence. calls from a first round at 10 µM; hits with a dose series show EC50 in µM. hit rate 0.62% among 87,000;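 active = over half of the reporter light lost at 10 µM or EC50 under 50 µM; inactive = the rest and hits that failed the dose series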;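 also: actives suppress MT1-MMP promoter-driven transcription so potencies describe inhibitors; HT1080 fibrosarcoma cells; overnight exposure; toxic or luciferase-blocking compounds were not removed from the actives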
# WNV NS2B-NS3 inh: inhibitors of WNV NS2B-NS3 protease, primary screen, biochemical, fluorogenic substrate | Genome polyprotein (West Nile virus), P06935 | fluorogenic substrate Ex360/Em465; hits give low values | z-score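 (tested at a level between 10 and 100 µM)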 | hit rate 0.18% among 65,000;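 active = z-score at -3 or under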;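 also: score is relative to mean and spread of the compound wells of a plate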
# Target sequence (P06935 1371-1501 limits assumed): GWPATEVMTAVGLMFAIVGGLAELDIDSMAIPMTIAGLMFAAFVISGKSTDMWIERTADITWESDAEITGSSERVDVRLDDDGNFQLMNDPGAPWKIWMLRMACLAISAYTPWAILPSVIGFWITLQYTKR
# Target sequence (P06935 1502-1679 limits assumed): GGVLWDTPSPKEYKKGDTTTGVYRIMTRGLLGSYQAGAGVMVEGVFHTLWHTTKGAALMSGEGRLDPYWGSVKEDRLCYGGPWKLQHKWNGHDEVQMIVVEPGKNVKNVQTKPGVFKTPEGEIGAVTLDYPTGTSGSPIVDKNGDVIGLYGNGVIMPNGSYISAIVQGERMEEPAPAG
# Hsc70: Hsc70 inhibitors, probe displacement, primary screen, biochemical, fluorescence polarization (AID 568). Hsc70 fluorescence polarization, probe displacement; higher % means a stronger effect; strong numbers were not always called active. Heat shock cognate 71 kDa protein (Homo sapiens). 83,000 tested, under 10 active. one-dose displacement, % at 20 µM; IC50 in µM for titrated hits;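 active = displacement above 50% without optical interference and an IC50 on retest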;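 also: ATPase domain with a fluorescein-tagged ATP probe; 0% = vehicle and 100% = excess ADP; read after one hour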
# An asterisk follows results filed as active; i = inactive; · = no result given. These rows are one share of the data; count on the stated rates, not on these rows.
# Second line of a record – WNV NS2B-NS3 inh, MT1-MMP promoter, Hsc70
> Cc1nnc(OCc2nc3ccccc3n2C)c2ccccc12
  -0.9, i, 1.8%
> Cc1ccc(-c2nnn(CC(=O)NCC3CC3)n2)o1
  ·, i, 1.3%
> N#CCCSc1ncnc2c1oc1ccccc12
  -0.11, i, -4.8%
> COc1ccc(C(c2nnnn2CS(=O)(=O)c2ccc(C)cc2)N2CCN(c3ncccn3)CC2)cc1 (stereo not given)
  ·, i, -2.3%
> CC(=O)Nc1ccc(NS(=O)(=O)c2cccc3ccccc23)cc1
  ·, i, 4.3%
> CC(=O)c1c(NCc2ccccc2)nc(=O)n(-c2ccccc2)c1C
  -0.32, i, -4.9%
> CCC(Sc1nc2cc3c(cc2c(=O)n1Cc1ccco1)OCO3)C(=O)Nc1ccccc1OC (stereo not given)
  2, i, -5.1%
> CCOC(=O)c1cnn(-c2cccc(Cl)c2)c1N
  -1.4, i, 2.4%
> CCCc1c(O)nc(SCCN(CCC)CCC)[nH]c1=O
  -2.1, i, 5.3%
> Cc1nc(SCC(=O)Nc2cc(C)on2)c2c(=O)n(C)c(=O)n(C)c2n1
  -0.06, i, 0.2%
> CCn1c(-c2ccco2)nc2ccccc21
  -0.46, i, 1.8%
> O=C1CCNc2cc3ccccc3cc21
  0.41, i, 34%
> COc1cccc(C(=O)Cn2c(N3CCOCC3)nc3c2c(=O)n(C)c(=O)n3C)c1
  1.1, i, -10%
> CCCCOCCCNC(=O)c1ccc2c(c1)OCO2
  -0.56, i, 1.1%
> c1ccc(N2CCN(c3ccccc3)C2c2cccnc2)cc1
  ·, i, -2.2%
> N#Cc1cc2cc3c(cc2nc1N1CCCCC1)OCCO3
  1.2, i, 2.1%
> CCNC(=O)N(C(=O)NCC)n1c(C)nnc1C
  -0.68, i, 7.8%
> COC(=O)Cn1nc(-c2ccc(C)c(S(=O)(=O)N(C)C)c2)c2ccccc2c1=O
  -0.43, i, -8.7%
> COC(=O)CCC(=O)N1CCOCCOCCN(C(=O)CCC(=O)OC)CCOCCOCC1
  ·, i, -1.5%
> CC(C)C(NC(=O)COc1ccccc1)C(=O)O (stereo not given)
  ·, i, 0.1%
> c1ccc(-c2nc(NCc3cccnc3)c3oc4ccccc4c3n2)cc1
  -0.41, i, 0.9%
> Clc1ccc2c(NCc3ccccn3)ncnc2c1
  ·, i, 1.6%
> CC(C)C(NC(=O)OCc1ccccc1)C(=O)OCC(=O)NCc1ccco1 (stereo not given)
  1.1, i, -4.1%
> Cc1ccc(C(=O)Nc2ccc3c(c2)nc2n3CCSC2)cc1
  0.56, i, 0.3%
> O=C(CSc1ccc2c(c1)OCCO2)Nc1ncc(Cl)cc1Cl
  ·, i, 1.7%
> CSc1nc(-c2ccc(Cl)cc2)nn1C(=O)c1ccco1
  ·, i, 2.1%
> COc1ccc(C(=O)NC(=S)N2CCCCC2)cc1
  ·, i, 2.6%
> Cc1ccc2[nH]c3c(=O)n(Cc4ccncc4)cnc3c2c1
  ·, i, -1.3%
> O=C(c1ccccc1)N1CCN(C(=O)c2cc3ccccc3o2)CC1
  ·, i, -3.2%
> O=C(Nc1ccc(S(=O)(=O)NCc2cccnc2)cc1)c1ccco1
  -0.59, i, -3.0%
> CCn1c(SCC(=O)OCc2ccccc2)nnc1-c1ccco1
  0.1, i, 0.6%
> Cn1c(=O)c2c(nc(CN3CCc4ccccc4C3)n2CCc2ccccc2)n(C)c1=O
  -0.64, i, 4.2%
> CCc1ccc2[nH]c(=O)c(CN(Cc3nnnn3C3CCCC3)C3CCCCC3)cc2c1
  -0.14, i, 0.5%
> Cc1cc(C)nc(SCc2nnc(SCC(=O)OC3CCCCC3)o2)n1
  1.6, i, 5.0%
> O=C(NC1CC2CCCC(C1)N2C(=O)N1CCCCC1)C1CCCCC1 (stereo not given)
  0.32, i, -4.3%
> CSc1nnc(-c2ccccc2Cl)o1
  ·, i, -0.2%
> CCOC(=O)N1CCN(C(=O)COc2ccc(S(=O)(=O)NCC(C)C)cc2C)CC1
  ·, i, 1.6%
> CN1CC2=Cc3ccccc3OC23Oc2ccccc2C=C3C1
  -0.56, i, 10%
> COc1ccc2c(c1)nc1n2CN(CC2CCCO2)CN1Cc1ccccc1 (stereo not given)
  2.7, i, 1.6%
> COCCSc1nnc(NC(=O)C2CCCO2)s1 (stereo not given)
  2.1, i, 0.8%
> O=C1C=C(NCc2ccc(Cl)cc2)CC(c2ccco2)C1 (stereo not given)
  2, i, -1.7%
> COc1ccc(S(=O)(=O)N(C)CC(=O)Nc2ccccc2OC)cc1
  ·, i, -1.6%
> Cc1c(C#N)c2ccccc2n1CC(=O)NCc1cccnc1
  -0.8, i, 2.9%
> COc1ccc(S(=O)(=O)NC(CC(=O)NCc2ccccc2OC)c2ccco2)cc1 (stereo not given)
  -0.05, i, 1.7%
> COc1cccc(-c2ccc(C#N)c(OC(=O)c3ccc(Cl)cc3)n2)c1
  ·, i, -2.4%
> CC1Cc2ccccc2N1C(=O)CSc1nnc2sc3ccccc3n12 (stereo not given)
  -0.44, i, 12%
> Cc1ccc(S(=O)(=O)NCCc2ccncc2)cc1
  -0.15, i, 3.2%
> O=C(Oc1nsnc1N1CCOCC1)N1CCCCC1
  0.71, i, 3.2%
> CC1(C(=O)NC2CCCCC2)CCC(=O)N1Cc1cccnc1 (stereo not given)
  0.8, i, -1.8%
> COCc1nnc(NC(=O)CCC2CCCCC2)s1
  -1.7, i, 4.2%
> COc1ccc(C(C(=O)NC2CCCCC2)N(CC2CCCO2)C(=O)CNC(=O)c2ccco2)cc1 (stereo not given)
  1, i, 3.1%
> Cc1cccc2c(=O)c(C(=O)NCCCN3CCOCC3)c[nH]c12
  ·, i, 2.6%
> COc1ccc(C2C(C(N)=O)=C(C)Nc3nc(-c4ccccc4OC)nn32)cc1OC (stereo not given)
  1.4, i, 1.2%
> COc1ccc(OC)c(NC(=O)CSc2ccccc2)c1
  0.1, i, -1.0%
> CC(C)N1CC(O)=C(c2nc3ccccc3c(=O)[nH]2)C1=N
  ·, i, -2.1%
> CC(C)[C@@H]1N[C@]2(C(=O)Nc3ccccc32)[C@@H]2C(=O)N(c3cccc(C(F)(F)F)c3)C(=O)[C@@H]21
  1.2, i, 3.1%
> Cc1ccc(C(c2nnnn2CS(=O)(=O)c2ccc(C)cc2)N2CCN(c3ncccn3)CC2)cc1 (stereo not given)
  ·, i, 0.5%
> O=C(CCC1CCCCC1)Nc1c2c(nn1-c1ccc(F)cc1)CS(=O)(=O)C2
  1.4, i, -1.3%
> COC(=O)Nc1ccc(S(=O)(=O)N2CCCCCC2)cc1
  0.83, i, 3.6%
> CCN(CC)S(=O)(=O)N1CCC(C(=O)NCCN2CCOCC2)CC1
  -0.28, i, 1.4%

# The list goes on.
# Second line of a record – WNV NS2B-NS3 inh, MT1-MMP promoter, Hsc70
> CCOc1ccccc1NC(=O)c1cc(Cl)ccc1NC(=O)c1ccco1
  1.4, i, 1.4%
> Cc1ccc(CCNC(=O)c2coc3nc4ccccc4nc23)cc1
  -0.95, i, -40%
> Nn1c(SCC(=O)NC2CCCCC2)nnc1-c1ccc(Cl)cc1
  -0.19, i, -1.7%
> CC(C)(C)NC(=O)Cn1c(SCC(=O)N2CCCCCC2)nc2ccccc21
  1.8, i, -5.2%
> CCCc1nnc(NC(=O)C(C)N2C(=O)C3C4C=CC(C4)C3C2=O)s1 (stereo not given)
  0.44, i, 2.2%
> Brc1ccc(-c2nnc3n2CCCCC3)cc1
  ·, i, 5.5%
> CCOC(=O)c1ccc(NC(=O)NCCN2CCCCC2)cc1
  -0.26, i, 1.3%
> CCOc1ccc(-n2cnnn2)cc1S(=O)(=O)NCc1ccccc1
  0.16, i, -2.3%
> O=C(NCc1cccnc1)c1cnc2sccn2c1=O
  -0.47, i, 1.5%
> CCC(Oc1ccc2c(c1)C(=O)CC(C)(C)O2)C(=O)NCCN1CCCCCC1 (stereo not given)
  2.8, i, -6.6%
> CCCN(CCC)CCNS(=O)(=O)c1ccc2c(c1)oc(=O)n2C
  -1, i, -4.9%
> Cc1cc(-n2[nH]c(C)c(C)c2=O)nc(-c2ccccc2O)n1
  0.59, i, -1.6%
> CCOC(=O)N1CCN(C(=O)CCN2C(=O)COc3ccc(C)cc32)CC1
  -0.18, i, 5.6%
> NC(=O)c1ccsc1NC(=O)C1CCCN1S(=O)(=O)c1ccc(Cl)cc1 (stereo not given)
  -0.57, i, 0.9%
> CC(=O)NCCCc1nc2ccccc2n1Cc1ccc(C)cc1
  ·, i, -3.3%
> CS(=O)(=O)n1nc(C(=O)N2CCOCC2)nc1N
  ·, i, 2.0%
> Cn1c(CN2CCCCC2)c(C#N)c2ccccc21
  2.2, i, 1.6%
> Cc1cc(Cl)c(S(=O)(=O)N2CCCC2)cc1OCC(=O)NC1CCCCC1
  ·, i, 5.0%
> C=COCCNC(=O)Nc1ccc(Cl)c(Cl)c1
  -0.74, i, 2.4%
> CCCOc1cccc(C(=O)N(Cc2ccco2)C2CCS(=O)(=O)C2)c1 (stereo not given)
  0.21, i, 8.8%
> Cn1c(=O)c2[nH]c(CNCc3ccccc3Cl)nc2n(C)c1=O
  -0.51, i, -3.7%
> CCOC(=O)C1=C(C(C)=O)C(c2cccnc2)C(C#N)=C(N)O1 (stereo not given)
  0.25, i, 0.9%
> COCCCNS(=O)(=O)c1ccc(OC)c(Cl)c1Cl
  -0.47, i, -12%
> Cc1ccc(OCc2nnc(SCc3ccc(C#N)cc3)n2-c2ccc(C)cc2)cc1
  ·, i, 8.4%
> CCOC(=O)c1c(C)[nH]c(C)c1C(=O)COC(=O)c1ccc(S(=O)(=O)N(CC)CC)cc1
  ·, i, 3.6%
> Cc1cccc(C2NC(=O)c3c(sc(C)c3C)N2)c1O (stereo not given)
  ·, i, 2.6%
> COc1cccc(NC(=O)c2oc3ccccc3c2NC(=O)c2ccc3c(c2)OCO3)c1
  0.59, i, -3.8%
> COc1cc(/C=C/C(=O)N(C)c2ccccc2C(=O)O)cc(OC)c1OC
  ·, i, -1.1%
> O=S1(=O)N=C(N2CCOCC2)c2ccccc21
  -1, i, 1.3%
> C=CCNC(=O)NC(=S)c1ccccc1
  -0.43, i, -0.4%

# Quoted at random: six entries already listed.
# Second line of a record – WNV NS2B-NS3 inh, MT1-MMP promoter, Hsc70
> O=C(c1ccccc1)N1CCN(C(=O)c2cc3ccccc3o2)CC1
  ·, i, -3.2%
> CCCc1c(O)nc(SCCN(CCC)CCC)[nH]c1=O
  -2.1, i, 5.3%
> NC(=O)c1ccsc1NC(=O)C1CCCN1S(=O)(=O)c1ccc(Cl)cc1 (stereo not given)
  -0.57, i, 0.9%
> CCOC(=O)c1ccc(NC(=O)NCCN2CCCCC2)cc1
  -0.26, i, 1.3%
> O=C(Nc1ccc(S(=O)(=O)NCc2cccnc2)cc1)c1ccco1
  -0.59, i, -3.0%
> Brc1ccc(-c2nnc3n2CCCCC3)cc1
  ·, i, 5.5%

# Other entries.
# Second line of a record – WNV NS2B-NS3 inh, MT1-MMP promoter, Hsc70
> COc1ccc2cc(CN(Cc3cccnc3)S(=O)(=O)c3ccccc3)c(=O)[nH]c2c1
  0.63, i, 2.3%
> O=C(Nc1ccccc1)NC1(C(=O)N2CCN(c3ncccn3)CC2)CCCCC1
  -0.66, i, 1.0%
> O=C1CC(C(=O)Nc2cccc3ccccc23)C2(CCCC2)O1 (stereo not given)
  ·, i, -0.8%
> COc1cc(NC(=O)CSc2ccc3c(c2)OCCO3)cc(OC)c1OC
  ·, i, 2.2%
> CCOC(=O)c1c(NC(=O)CSc2nnc(C)s2)sc2c1CCN(C)C2
  0.23, i, -34%
> CCCCC(=O)Nc1nn(CC(C)C)c2nc3ccccc3cc12
  ·, i, 1.3%
> Cc1cccc(Nc2ccccc2C(=O)NCc2ccco2)c1C
  ·, i, -4.1%
> CCOC(=O)c1cnc(SCc2ccc(C(C)(C)C)cc2)nc1N
  ·, i, 3.1%
> COC(=O)C1=C(C)Nc2ncnn2C1c1ccccn1 (stereo not given)
  -1.6, i, 0.4%
> Cc1c(Cl)cccc1NC(=O)CC1NCCNC1=O (stereo not given)
  ·, i, 1.1%
> COc1ccc(Cn2nnnc2CN2CCc3ccccc3C2)cc1
  ·, i, 1.3%
> CC(C)(C)SCCNC(=O)c1ccc(Cl)c(S(=O)(=O)N2CCOCC2)c1
  ·, i, 3.1%
> Cc1ccc(S(=O)(=O)N2CCN(C(=O)CCC(=O)N3CCc4ccccc43)CC2)cc1
  -0.08, i, 1.4%
> CCCn1c(C)cc(=O)c2cc(NC(=O)c3cnccn3)ccc21
  0.3, i, -3.3%
> O=C(COC(=O)c1cc2ccccc2o1)c1ccccc1
  0.15, i, 1.0%
> CCOC(=O)c1c(NC(=O)CSc2nnc(Cc3csc(N)n3)n2C)sc(C)c1C
  0.92, i, -1.1%
> O=C(CN(Cc1ccccc1)C(=O)CCC(=O)Nc1ccccn1)NCc1ccco1
  0.27, i, -1.1%
> Cc1ccc(CN2C(=O)CCC2C(=O)NCc2ccco2)cc1 (stereo not given)
  0.5, i, -0.2%
> O=C1Nc2cc(Cl)c(Cl)cc2N(O)N1c1cccc(Cl)c1
  ·, i, 0.7%
> Cc1cc(C(=O)CSc2nnc(-c3ccccc3)n2-c2ccccc2)c(C)n1-c1ncn[nH]1
  1.9, i, -11%
> O=C(N/N=C/c1ccc(Br)cc1)c1ccccc1-n1cccc1
  ·, i, 5.5%
> COc1cccc(-c2ccc(C#N)c(OC(=O)c3c(Cl)cccc3Cl)n2)c1
  ·, i, 2.1%
